Bioassay records (PubChem BioAssay)
ALR inh – human ALR oxidase inhibition via reduced H2O2 | P55789 | purified ALR, DTT oxidation, H2O2 HRP-luminol luminescence | inhibition, % (no concentration beside the values) | actives 3.8% (n = 290,000);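 active means mean and each replicate at 75% or more; inconclusive means only one of the two met; inactive means neither met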;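 further: stock transfer was 7.5 nL into about 7.5 µL; 0% = neutral wells and 100% = wells with inactivated enzyme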
Target sequence (P55789 whole entry, looked up): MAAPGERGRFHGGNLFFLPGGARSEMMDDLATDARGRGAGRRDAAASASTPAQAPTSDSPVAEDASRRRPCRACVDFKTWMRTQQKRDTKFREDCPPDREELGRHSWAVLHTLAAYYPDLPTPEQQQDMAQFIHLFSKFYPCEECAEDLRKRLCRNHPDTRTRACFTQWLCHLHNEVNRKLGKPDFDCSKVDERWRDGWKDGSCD
Beta2AR agonist – agonists of human beta-2 adrenergic receptor inducing internalization | actives 0.43% (n = 340,000) | Am2.2-beta2AR cells, FAP receptor internalization, flow cytometry; reference of the scale not given here | response, % (test concentration not listed);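 active means response above a set limit, near 3 SD of response in nonfluorescent compounds, cut at about 42% in these data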;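 further: stock transfer was 100 nL into about 11 µL; a reference agonist was the positive control; negative values mostly stem from fluorescent compounds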
Target sequence (P07550 whole entry, looked up): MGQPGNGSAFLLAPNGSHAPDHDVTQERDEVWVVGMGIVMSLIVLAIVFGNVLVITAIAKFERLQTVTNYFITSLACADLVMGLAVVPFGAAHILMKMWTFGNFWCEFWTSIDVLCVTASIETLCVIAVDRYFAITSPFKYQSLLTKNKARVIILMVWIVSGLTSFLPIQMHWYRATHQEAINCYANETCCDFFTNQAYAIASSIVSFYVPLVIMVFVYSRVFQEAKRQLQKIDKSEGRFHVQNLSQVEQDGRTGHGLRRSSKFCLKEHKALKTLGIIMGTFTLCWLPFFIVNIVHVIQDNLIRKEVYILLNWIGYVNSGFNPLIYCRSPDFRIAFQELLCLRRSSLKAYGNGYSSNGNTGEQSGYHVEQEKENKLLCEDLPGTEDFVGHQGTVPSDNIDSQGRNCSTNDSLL
A1 inh – inhibitors of the anti-apoptotic protein A1, read as caspase activation | MEF A1-2A-BIM cells, Caspase-Glo 3/7 luminescence, 3 h; percent of clofoctol response, vehicle zero | caspase activation, % (test concentration not listed) | actives 0.066% (n = 330,000);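 active means over half of replicate activation scores above 10%, or exactly half above 10 with the replicate mean above 10; inconclusive means replicate mean below 10 yet half the replicates above 10; inactive means over half of replicates below 10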;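 further: wells of about 30 µL received 50 nL stock; many hits fall short of the cut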
LANA-H2A inh – blocks KSHV LANA binding to histone H2A/H2B; Q9QR71; cell-free LANA-H2A/H2B peptide, fluorescence polarization; inhibition, % (concentration not given with the values); actives 0.6% (n = 320,000); in the data active means inhibition mostly above about 10%, no sharp cut-off; inactive means mostly below about 6.7%;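 further: stock transfer was 7.5 nL into about 10 µL; 0% = median of vehicle wells and 100% = median of positive control wells; one replicate is shown; the record names a cut of 25% in any replicate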
Ecoli rRNA inh – inhibitors of bacterial rRNA selective over humanized ribosomes; E. coli WT GFP vs humanized-ribosome RFP mutants, fluorescence, 24 h; hits give low values; DMSO median 0, no signal -100; GFP signal change (wild-type ribosome), % (no concentration beside the values); actives 1.6% (n = 350,000); AID 720706;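 active means significant combined selectivity score with lowered wild-type GFP, culture density cut under 30%, mutant RFP and density less affected; inactive means any of these conditions unmet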; further: one replicate is shown; some compounds called inactive have numbers as strong as hits
Calb FLC – affects C. albicans growth with fluconazole; C. albicans CaCi-2 (fluconazole-resistant clinical isolate) + fluconazole, Alamar Blue growth, 48 h; actives 0.57% (n = 300,000); growth inhibition, % (test concentration not listed); AID 1979;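 active means most replicates above 75%; inconclusive means exactly half above 75%; inactive means most below 75%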;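 further: all wells also contain fluconazole at 8 µg/ml as a sub-toxic cotreatment; 0% = median of DMSO wells and 100% = median of geldanamycin control wells; wells of about 8 µL received 7.5 nL stock; the first replicate is given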
Beta apoptosis – beta cell apoptosis inhibition | INS-1E cytokine-induced death, ATP luminescence, 48 h; percent of positive-control rescue, neutral wells zero | protection from apoptosis, % (no concentration beside the values) | actives 0.8% (n = 300,000);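 active means all replicates at 75% or more, or half of them and the mean; inconclusive means half reach 75% but not the mean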;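 further: 0% = cytokine-treated negative control wells and 100% = positive control rescue; higher means more ATP so stronger rescue from cytokine killing; wells of about 40 µL received 100 nL stock; the first replicate is given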
T cruzi repl – blocks replication of Trypanosoma cruzi. T. cruzi beta-gal in NIH3T3, luminescence, 90 h. inhibition, % (concentration not given with the values). actives 1.4% (n = 300,000). AID 1885;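 active means mean inhibition across valid replicates above about 55%, limit read from the data; inconclusive means mean below that limit but half or more replicates reach it; inactive means mean below it, under half of replicates reach it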;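 further: signal also drops with host cell toxicity which is not excluded here; 0% = plate median of DMSO wells and 100% = zero luminescence signal; higher percent means less beta-gal luminescence so fewer parasites; stock transfer was 50 nL into about 50 µL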
Ecoli rRNA inh OD600 – also measured in Ecoli rRNA inh; calls as there; OD600 change, %; measured here: OD600 growth;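 optical density of the mix in the first replicate; 0 = DMSO median and -100 = no signal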
Ecoli rRNA inh RFP – further read-out of Ecoli rRNA inh, marked with its call; RFP signal change, %; measured here: RFP humanized mutant strains;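 first replicate; 0 = DMSO median and -100 = no signal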
* marks the source's active call; other numbers are inactive results; ? = inconclusive; . = not tested or not shown. Only part of the results is shown; count on the stated rates, not on these rows.

SMILES	ALR inh	Beta2AR agonist	A1 inh	LANA-H2A inh	Ecoli rRNA inh	Ecoli rRNA inh OD600	Ecoli rRNA inh RFP	Calb FLC	Beta apoptosis	T cruzi repl
O=C(O)c1ccc(Cl)c(S(=O)(=O)Nc2ccc(S(=O)(=O)Nc3cccc(Cl)c3)cc2)c1	12.1	11.6	-0.4	5.2	3.3	-1.7	0.7	-5.4	.	-9.2
CCC(C)NC(=O)c1ccccc1NC(=O)CN1C(=O)c2ccccc2S1(=O)=O (centres undefined)	11.9	-14.1	0.9	-1.7	7.2	-4.3	7.6	1.7	.	3.9
O=C(COc1ccccc1Cl)N1CCN(c2ccc(F)cc2)CC1	2.6	-1.5	0.0	2.3	.	.	.	-3.7	-3.0	-2.2
CC(=O)COC(=O)C1CC(=O)N(c2ccc(C)c(C)c2)C1 (centres undefined)	36.0	1.5	0.1	1.0	2.7	3.7	0.0	-7.7	1.8	-22.7
Cc1occc1-c1nnc(SCC(=O)N2CCOCC2)n1CC(C)C	-10.3	-0.9	1.5	2.7	.	.	.	3.6	-2.9	-8.5
CCOc1ccccc1NC(=O)c1nnn(CC(=O)Nc2ccc3c(c2)OCO3)c1N	-7.0	3.1	0.9	-0.1	2.5	8.2	-0.8	-30.6	-6.5	-2.7
Cn1cnnc1Sc1cc(N2CCN(S(=O)(=O)c3ccc4ccccc4c3)CC2)ccc1[N+](=O)[O-]	-2.6	10.9	-0.8	-3.5	.	.	.	?	6.0	19.5
CC(=O)NC(=S)Nc1ccccc1C(=O)Nc1ccccc1	11.6	5.8	-0.4	-5.2	.	.	.	-1.9	2.2	5.6
CC1(c2cccc(Br)c2)NC(=O)N(CC(=O)Nc2ccc(S(N)(=O)=O)cc2)C1=O (centres undefined)	1.1	-3.8	0.3	-6.0	-0.8	2.2	-0.9	9.4	-2.6	-10.7
Cn1c(=O)[nH]c(=O)c2[nH]c(CN3CCN(Cc4ccccc4)CC3)nc21	-4.7	8.3	0.1	-3.1	8.7	8.8	-2.3	-2.5	-6.2	23.4
CCC(C(=O)NCC1CCCO1)N(Cc1ccc(F)cc1)C(=O)CNS(=O)(=O)c1ccccc1 (centres undefined)	-5.4	4.0	0.8	5.9	1.7	2.4	1.3	0.4	2.6	-3.1
Cc1ccccc1N1CCN(C(=O)c2ccccc2NC(=O)c2ccccc2C(=O)O)CC1	-0.4	5.5	0.1	-1.9	3.7	-2.4	8.5	17.5	0.2	-10.9
S=c1[nH]nc(COc2ccccc2)n1/N=C/c1cccc(Br)c1	.	6.8	0.8	-0.6	-7.0	-16.9	2.0	-1.2	.	-9.4
CCOc1ccc(CCNC(=O)c2ccc(Cl)c(S(=O)(=O)N3CCOCC3)c2)cc1OCC	-22.9	6.0	-0.3	-1.4	0.0	0.4	0.2	-3.7	7.4	23.6
COc1cccc(OC)c1C(=O)Nc1cccc(C(=O)Nc2cccc(C(=O)O)c2)c1	3.7	-2.7	-3.7	-4.3	6.8	5.8	-0.4	-3.6	-6.0	-9.0
COc1ccccc1CNC(=O)COC(=O)c1nccnc1N	-18.5	-6.4	-0.4	0.7	9.4	10.2	0.1	15.0	-6.6	-11.3
O=S(=O)(CCOc1ccccc1)N1CCOCC1	3.1	0.9	0.7	5.7	.	.	.	-22.8	-2.8	-11.0
CCOc1ccc(/C=C2\SC(=S)N(NC(=O)c3ccncc3)C2=O)cc1OC	-7.1	3.0	-0.5	0.6	4.9	3.8	0.0	15.8	1.0	9.1
O=C(CSc1nnc(-c2ccccc2)o1)N1CCCC1	1.0	-7.8	0.1	-1.8	7.8	9.2	-0.3	-3.6	-3.4	-10.9
COc1ccc(C(=O)Nc2ccc3oc(-c4cccnc4)nc3c2)cc1OC	-3.2	5.0	0.5	-0.5	-14.6	-28.5	-2.0	37.0	0.0	12.6
CC(C)(Oc1ccc(Cl)cc1)C(=O)Nc1c2c(nn1C(C)(C)C)CS(=O)(=O)C2	3.4	-4.8	-0.5	-5.2	-5.3	-4.5	-0.9	7.4	.	4.8
Cc1cc(C)c(C#N)c(SCS(=O)Cc2ccc(Cl)cc2)n1 (centres undefined)	-1.3	-13.7	0.4	-0.9	-44.4*	-30.5*	-10.8*	6.3	4.9	20.9
O=C(OCC(=O)N1CCCC1)c1cncc(Br)c1	3.8	1.7	0.3	2.2	.	.	.	-4.2	-1.2	-4.1
O=C(CSc1ccc2c(c1)OCCO2)NC(=O)NC1CCCC1	2.8	-2.8	-0.4	-1.2	.	.	.	-6.1	-8.4	-2.6
COc1ccc(S(N)(=O)=O)cc1C(=O)OCCCC(=O)c1ccccc1	-4.1	-3.3	-0.9	-1.3	-3.7	2.9	-1.3	.	-2.0	.
O=C(C1CC1)N1N=C(c2cccc(Br)c2)CC1(O)C(F)(F)F (centres undefined)	-11.2	0.2	0.3	8.5	-3.8	-4.8	-1.0	-13.7	-2.5	-0.2
CC(C)Cn1c(O)c2ccc(C(=O)N=NC(=O)c3cccnc3)cc2c1O	2.0	-1.7	0.2	-15.5	.	.	.	9.3	-3.5	-4.7
COc1ccc(S(=O)(=O)N2CCCCCC2)cc1C(=O)N(C)Cc1ccc(F)cc1	-3.0	4.7	0.0	1.2	-7.9	-1.9	2.6	0.7	-5.7	25.9
NC(=S)Nc1cc(Cl)ccc1Cl	-2.8	-12.8	-0.5	-4.5	9.1	6.6	1.8	?	-8.8	-11.9
O=C(/C=C/c1cccc([N+](=O)[O-])c1)NCc1ccc2c(c1)OCO2	47.4	-10.7	-0.3	3.1	.	.	.	-7.6	.	-6.4
COC(=O)C1=C(C(=O)OC)[C@@H]2N(C)c3ccc(OC)cc3[C@@]23C[C@@H](C(=O)OC)N(C(=O)NCCBr)C3=N1	1.3	.	-0.3	1.6	3.0	3.9	-4.1	2.1	4.8	-10.1
CCOc1ccc(-n2c(-c3ccccc3)c[n+]3c2CCCCC3)cc1	-23.0	5.2	-0.2	-3.8	-43.0*	-31.3*	-1.4*	87.3*	98.8*	60.0*
Cc1cc(C)n2nc(SCC(=O)N(C(C)C)C(C)C)nc2n1	-4.5	-9.9	0.6	5.9	.	.	.	4.0	0.9	-8.7
O=C(NC1CCCCC1)C(c1ccco1)N(C(=O)c1csnn1)c1ccc(Cl)cc1 (centres undefined)	-13.6	-2.5	-0.3	0.9	-2.2	-35.4	0.2	-15.0	-0.5	15.2
CN(c1ccc(C(=O)Nc2ccc(Cl)cn2)cc1)S(=O)(=O)c1ccccc1	4.5	5.7	0.4	-4.6	-15.9	-29.2	7.4	46.5	-1.2	24.3
CC(NC(=S)Nc1cccc(C(F)(F)F)c1)C(C)(C)C (centres undefined)	-0.2	2.7	0.8	6.2	-36.2	-53.8	-6.7	5.1	11.0	-3.5
COc1ccc(OC)c(/C=C2\SC(=S)N(NS(=O)(=O)c3ccccc3)C2=O)c1	61.2	6.8	1.1	0.0	-16.3	-19.6	1.8	-0.9	-6.4	3.5
O=C(NC(=S)Nc1ccc(NC(=O)c2cccs2)cc1)c1cc2ccccc2o1	.	-7.5	2.8	-1.0	.	.	.	-6.9	6.1	3.2
CC(NC(=O)c1ccco1)C(=O)N1CCc2ccccc2C1 (centres undefined)	-0.5	-2.0	0.1	-0.4	.	.	.	-3.9	-6.3	-13.0
COc1ccc(S(=O)(=O)N2CCN(c3ccc4nnc(-c5ccccc5)n4n3)CC2)cc1	.	-9.8	-0.4	1.3	-7.2	0.6	8.6	-3.8	1.2	5.0
O=C(NCc1n[nH]c(=S)n1Cc1ccccc1)c1ccccc1	?	4.8	0.9	-1.5	2.3	6.4	-1.0	-2.7	-5.2	-3.4
CN(CC(=O)Nc1cccc(F)c1)C(=O)c1cccc(-n2cccc2)c1	5.3	-7.1	-0.3	5.1	1.1	-11.9	3.6	-3.1	-14.1	-3.1
CC1CCN(CCCn2c(SCC(=O)NC3CCCC3)nc3ccccc3c2=O)CC1	-0.1	-1.4	0.4	2.9	1.1	12.3	2.6	-1.2	-3.7	-3.5
CCOC(=O)c1c(C)c(C(=O)Nc2ccc3c(c2)OCCO3)c(C)n1CC	-5.9	15.0	-1.3	-2.7	.	.	.	-18.9	-3.1	7.7
CC(C)(C)C1CCC(C(=O)NCCc2ccc(S(N)(=O)=O)cc2)CC1 (centres undefined)	-17.7	8.9	2.0	1.1	-4.5	-9.6	4.3	8.7	8.1	11.3
CC(C)[C@@H](CO)NC(=O)c1ccc2c3n(nc2c1)-c1ccc(Cl)cc1CO3	-1.4	-10.2	-4.9	-2.8	-13.6	-15.6	-2.8	5.2	.	6.2
CCCn1c(=O)c(C(=O)N/N=C/c2ccc(F)cc2)c(O)c2ccccc21	-2.3	-1.7	-0.5	-4.9	3.4	8.1	2.7	1.2	18.4	-11.4
CC(C)c1ccc(Nc2ncccc2C(=O)O)cc1	18.0	10.6	-8.9	2.2	-17.2	-26.8	-1.5	25.7	-2.2	?
COc1cccc(Nc2nc(C)cc(C)c2C(N)=O)c1	.	-1.1	0.2	0.4	1.5	2.7	-2.0	4.4	-2.3	-3.9
CC(C)(C)c1nc(C(C)(C)C)c(Br)c(=O)[nH]1	-4.0	0.9	0.0	2.3	-1.7	-3.1	-9.5	-3.8	29.9	-4.5

Continued:
SMILES	ALR inh	Beta2AR agonist	A1 inh	LANA-H2A inh	Ecoli rRNA inh	Ecoli rRNA inh OD600	Ecoli rRNA inh RFP	Calb FLC	Beta apoptosis	T cruzi repl
CCN1C(=O)c2ccccc2Sc2ccc(C(=O)O)cc21	-6.1	-5.2	1.6	-0.9	-0.4	5.6	-1.2	-2.4	-4.6	-7.9
Cc1ccccc1NC(=S)NCC(c1cccnc1)N(C)C (centres undefined)	-3.7	-3.6	0.0	-5.2	6.0	1.3	-5.1	4.8	0.5	-0.3
CCc1nc(SCC(=O)Nc2ccnc3ccccc23)n[nH]1	-2.1	9.5	1.1	5.7	.	.	.	2.7	.	-12.7
O=C(NCCc1ccccc1)c1c(O)c2ccccc2[nH]c1=O	-9.1	-14.4	-4.4	6.4	0.7	-0.1	-2.5	-3.6	.	15.4
CCOC(=O)c1nn(-c2ccc(Cl)cc2)c2nc(CC)c(C#N)c(=O)n12	0.7	-0.9	1.0	3.5	.	.	.	31.5	1.3	2.2
Cc1cc(C)nc(NS(=O)(=O)c2ccc(N/C=C3\CCCC3=O)cc2)n1	0.3	3.7	0.2	7.8	.	.	.	-11.3	-0.1	-18.3
CCCc1[nH]nc2c1C(c1ccccc1OCC)C(C#N)=C(N)O2 (centres undefined)	?	-7.4	1.2	-5.6	.	.	.	-3.3	0.3	-12.5
CSc1cccc(CN2CCC(Oc3ccc(C(=O)N4CCCCC4)cc3)CC2)c1	-19.5	-4.1	-0.3	3.2	-10.7	-29.7	26.0	-4.0	10.3	40.9
